Bioassay records deposited in PubChem by several laboratories.
Ecoli growth = E. coli growth inhibition | 330,000 compounds, 0.21% hits | OD600 absorbance (concentration not given with the values) | Escherichia coli growth, OD600, 23 h; active compounds read low;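 active = OD600 absorbance below the run mean of sample wells minus 3.6 SD, in any replicate, cut at about 0.56 in these data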;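 also: stock transfer was 300 nL into about 60 µL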
T cruzi repl = T. cruzi replication inhibition. T. cruzi beta-gal in NIH3T3, luminescence, 90 h. inhibition, % (test concentration not listed). 300,000 compounds, 1.4% hits. AID 1885;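 active = mean inhibition across valid replicates above about 55%, limit read from the data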;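 also: signal also drops with host cell toxicity which is not excluded here; 0% = plate median of DMSO wells and 100% = zero luminescence signal; higher percent means less beta-gal luminescence so fewer parasites; stock transfer was 50 nL into about 50 µL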
UCH37 DUB inh = inhibitors of human deubiquitinating enzyme UCH37 | inhibition, % (no concentration beside the values) | purified proteasome/UCH37, Ub-AMC cleavage fluorescence | 330,000 compounds, 0.33% hits;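 active = mean of two replicates above 20%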;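 also: 0% = compound-free wells with enzyme and 100% = wells lacking proteasome; stock transfer was 100 nL into about 20 µL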
Target sequence (Q9Y5K5 whole entry, looked up): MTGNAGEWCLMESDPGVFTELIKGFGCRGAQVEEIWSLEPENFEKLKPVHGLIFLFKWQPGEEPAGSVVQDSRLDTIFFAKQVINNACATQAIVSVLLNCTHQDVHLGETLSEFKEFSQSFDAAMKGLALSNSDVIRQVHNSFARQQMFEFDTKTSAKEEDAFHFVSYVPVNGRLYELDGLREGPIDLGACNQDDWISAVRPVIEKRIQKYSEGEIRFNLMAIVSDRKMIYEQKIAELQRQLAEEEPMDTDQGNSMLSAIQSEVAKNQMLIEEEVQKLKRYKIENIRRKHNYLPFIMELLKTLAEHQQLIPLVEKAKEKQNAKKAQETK
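Reagent: Ub-AMC substrate; assay system: Proteasome-associated human UCH37 deubiquitinase; controls: no-proteasome and no-compound wells; read-out: % inhibition of Ub-AMC cleavage fluorescence; timing: 30 min preincubation with enzyme, 25 min cleavage at room temperature; signal: AMC fluorescence from Ub-AMC cleavage, excitation 355 nm, emission 460 nm; buffer or medium: Tris-HCl pH 7.4 plus ovalbumin, ATP-MgCl2, DTT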
A1 inh = inhibitors of the anti-apoptotic protein A1, read as caspase activation | caspase activation, % (test concentration not listed) | MEF A1-2A-BIM cells, Caspase-Glo 3/7 luminescence, 3 h; percent of clofoctol response, vehicle zero | AID 2462 | 330,000 compounds, 0.066% hits;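 active = over half of replicate activation scores above 10%, or exactly half above 10 with the replicate mean above 10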;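 also: wells of about 30 µL received 50 nL stock; many hits fall short of the cut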
rRNA inh HTS = inhibitors of bacterial rRNA selective over humanized ribosomes. E. coli WT GFP vs humanized-ribosome RFP mutants, fluorescence, 24 h; active compounds read low; DMSO median 0, no signal -100. GFP signal change (wild-type ribosome), % (concentration not given with the values). 350,000 compounds, 1.6% hits;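 active = significant combined selectivity score with lowered wild-type GFP, culture density cut under 30%, mutant RFP and density less affected; inactive = any of these conditions unmet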; also: one replicate is shown; some compounds called inactive have numbers as strong as hits
FGF22 binding = FGF22 (human) thermal shift binding. Q9HCT0. recombinant FGF22 thermal shift, SYPRO orange fluorescence; percent of sucrose octasulfate shift, DMSO zero. calls only at 9.99 µM. 340,000 compounds, 1.5% hits;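 active = melting point raised past a set limit in the mean and every replicate; three in four hits are not shown here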
Target sequence (Q9HCT0 whole entry, looked up): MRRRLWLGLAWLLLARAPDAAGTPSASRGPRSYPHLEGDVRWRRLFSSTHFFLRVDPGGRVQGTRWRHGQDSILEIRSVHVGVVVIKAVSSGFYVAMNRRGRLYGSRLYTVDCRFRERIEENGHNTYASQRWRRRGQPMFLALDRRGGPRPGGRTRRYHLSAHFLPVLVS
Beta apoptosis = beta cell apoptosis inhibition. INS-1E cytokine-induced death, ATP luminescence, 48 h; percent of positive-control rescue, neutral wells zero. protection from apoptosis, % (concentration not given with the values). 300,000 compounds, 0.8% hits. AID 435005;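 active = all replicates at 75% or more, or half of them and the mean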;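 also: 0% = cytokine-treated negative control wells and 100% = positive control rescue; higher means more ATP so stronger rescue from cytokine killing; wells of about 40 µL received 100 nL stock; the first replicate is given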
AF4-AF9 inh = blocks AF4 peptide binding to human AF9; inhibition, % at 10 µM; P42568; AID 651704; 350,000 compounds, 0.47% hits; AlphaScreen, biotin-AF4 peptide binding to FLAG-AF9;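 active = every replicate reaching a set inhibition limit, whatever the replicate mean, cut at about 25% in these data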;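 also: 0% = plate neutral control median and 100% = total signal loss; the record names both 10 and 1 µM as test concentration; the first replicate is given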
Target sequence (P42568 whole entry, looked up): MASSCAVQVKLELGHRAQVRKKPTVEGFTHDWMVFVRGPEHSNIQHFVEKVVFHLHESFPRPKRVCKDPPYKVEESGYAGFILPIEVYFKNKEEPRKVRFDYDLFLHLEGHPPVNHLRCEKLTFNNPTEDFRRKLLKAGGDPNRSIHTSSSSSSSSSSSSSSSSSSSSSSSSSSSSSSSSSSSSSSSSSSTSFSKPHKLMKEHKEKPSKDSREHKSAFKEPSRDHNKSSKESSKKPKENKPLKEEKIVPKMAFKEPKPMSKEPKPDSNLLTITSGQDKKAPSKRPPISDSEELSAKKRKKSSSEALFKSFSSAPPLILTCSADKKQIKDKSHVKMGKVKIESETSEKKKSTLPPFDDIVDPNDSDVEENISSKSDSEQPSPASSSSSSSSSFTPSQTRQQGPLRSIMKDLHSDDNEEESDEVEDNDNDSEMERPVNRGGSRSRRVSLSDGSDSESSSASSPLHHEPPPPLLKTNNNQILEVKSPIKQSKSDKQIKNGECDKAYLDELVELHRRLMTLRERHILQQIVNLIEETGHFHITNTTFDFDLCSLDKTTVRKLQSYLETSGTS
rRNA inh HTS OD600 = recorded beside rRNA inh HTS, whose call it bears; OD600 change, %; measured here: OD600 growth;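 optical density of the mix in the first replicate; 0 = DMSO median and -100 = no signal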
rRNA inh HTS RFP = recorded beside rRNA inh HTS, whose call it bears; RFP signal change, %; measured here: RFP humanized mutant strains;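 first replicate; 0 = DMSO median and -100 = no signal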
The depositor's hits bear a star. A portion of the library; the hit share may differ from the screen's.

For COc1cccc(NC(=O)N2CCC(NC(=O)c3ccco3)CC2)c1 the results were Ecoli growth 0.6, T cruzi repl -4, UCH37 DUB inh 0.0, A1 inh -1.5, rRNA inh HTS -2, FGF22 binding inactive, Beta apoptosis 3, AF4-AF9 inh -8.2, rRNA inh HTS OD600 6 and rRNA inh HTS RFP -0.3.
For COc1ccc(C2NC(=O)NC(C)=C2C(=O)OCc2ccc3c(c2)OCO3)cc1OC (centres undefined) the results were Ecoli growth 0.69, T cruzi repl 6, UCH37 DUB inh -1.3 and A1 inh -0.6.
Screening O=C(Nc1ccccc1Cl)NC1(C(=O)NCc2cccnc2)CCCCC1 returned Ecoli growth 0.68, T cruzi repl -7, UCH37 DUB inh 3.1, A1 inh 0.1, rRNA inh HTS 3, FGF22 binding inactive, Beta apoptosis 0, AF4-AF9 inh -3.3, rRNA inh HTS OD600 3 and rRNA inh HTS RFP 0.2.
CCOC(=O)C1CCN(C(=O)COc2ccc(Cl)cc2)CC1 was read as Ecoli growth 0.72, T cruzi repl 0, UCH37 DUB inh 1.6, A1 inh -0.3 and Beta apoptosis -3.
`Cc1cccc(N(C)S(=O)(=O)c2c[nH]c3ccc([N+](=O)[O-])cc23)c1` gave Ecoli growth 0.68, T cruzi repl 14, UCH37 DUB inh 5.9, rRNA inh HTS 2, FGF22 binding inactive, AF4-AF9 inh 6.4, rRNA inh HTS OD600 0 and rRNA inh HTS RFP 0.5.
`Cc1nn(-c2ccccc2)c(C)c1/C=C/C(=O)OCC(=O)Nc1ccc(C(N)=O)cc1` gave Ecoli growth 0.66, UCH37 DUB inh 0.0, A1 inh 0.1, FGF22 binding inactive, Beta apoptosis -6 and AF4-AF9 inh 0.6.
`O=C(CN1C(=O)NC2(CCc3ccccc32)C1=O)c1ccc2c(c1)OCCO2` (centres undefined) gave Ecoli growth 0.65, T cruzi repl 11, UCH37 DUB inh 0.5, A1 inh -0.1 and Beta apoptosis -6.
O=C1CCC(C(=O)OC(C(=O)Nc2ccc([N+](=O)[O-])cc2Br)c2ccccc2)=NN1 (centres undefined) was read as Ecoli growth 0.66, UCH37 DUB inh 0.5, A1 inh -0.2, FGF22 binding inactive, Beta apoptosis -2 and AF4-AF9 inh 5.3.
O=C(NCCC(=O)N1CCN(Cc2c(F)cccc2Cl)CC1)c1ccc(Cl)cc1 was read as Ecoli growth 0.67, UCH37 DUB inh 0.1, A1 inh -0.4, rRNA inh HTS 2, FGF22 binding inactive, Beta apoptosis -1, AF4-AF9 inh 3.7, rRNA inh HTS OD600 2 and rRNA inh HTS RFP 7.1.
`CCc1ccc(N(CC(=O)Nc2nc3ccc(C)cc3s2)S(=O)(=O)c2c(C)noc2C)cc1` gave Ecoli growth 0.77, T cruzi repl 41, UCH37 DUB inh 6.3, A1 inh 0.3, rRNA inh HTS 9, FGF22 binding inactive, AF4-AF9 inh -5.5, rRNA inh HTS OD600 3 and rRNA inh HTS RFP 1.6.
Screening O=C(Nc1ccc(-c2csc(Nc3ccc(Cl)cc3)n2)cc1)c1cc([N+](=O)[O-])cc(C(F)(F)F)c1 returned T cruzi repl 23, A1 inh 0.4, rRNA inh HTS 13, FGF22 binding inactive, Beta apoptosis -2, AF4-AF9 inh -7.8, rRNA inh HTS OD600 13 and rRNA inh HTS RFP 0.7.
Screening COc1ccc(NC(=O)CN(C)C(=O)/C=C/c2ccc(OCc3ccccc3)cc2)cc1 returned Ecoli growth 0.7, T cruzi repl -14, UCH37 DUB inh 1.8, A1 inh -0.1, rRNA inh HTS 8, FGF22 binding inactive, Beta apoptosis 33, AF4-AF9 inh -10, rRNA inh HTS OD600 10 and rRNA inh HTS RFP 0.1.
For CCCCC(=O)Nc1nnc(SCC(=O)NC2CCCC2)s1 the results were Ecoli growth 0.7, T cruzi repl -7, UCH37 DUB inh 0.7, A1 inh -0.2 and Beta apoptosis -7.
Cc1ccc(NC(=O)NCCSc2ccc(C)cc2)cc1 was read as Ecoli growth 0.71, T cruzi repl 0, UCH37 DUB inh 1.7, A1 inh -0.5, rRNA inh HTS 7, FGF22 binding inactive, Beta apoptosis -4, AF4-AF9 inh -8.9, rRNA inh HTS OD600 10 and rRNA inh HTS RFP -0.4.
Screening CCCNC(=O)CCC(NS(=O)(=O)c1ccc(C)cc1)C(=O)NCCC (centres undefined) returned Ecoli growth 0.69, T cruzi repl -11, UCH37 DUB inh 3.2, A1 inh -0.5, rRNA inh HTS 5, FGF22 binding inactive, Beta apoptosis -4, AF4-AF9 inh 2.0, rRNA inh HTS OD600 3 and rRNA inh HTS RFP 0.2.
`CCSC1=C(C#N)C(CC(C)C)C2=C(CCCC2=O)N1` (centres undefined) gave Ecoli growth 0.64, T cruzi repl 7, UCH37 DUB inh -21, A1 inh 0.0, rRNA inh HTS -6, FGF22 binding inactive, Beta apoptosis 6, AF4-AF9 inh 1.2, rRNA inh HTS OD600 -26 and rRNA inh HTS RFP -13.
O=C(OCC(=O)c1cccc2ccccc12)c1ccc(CO)cc1 was read as Ecoli growth 0.66, T cruzi repl -5, UCH37 DUB inh -1.1, A1 inh -0.6, rRNA inh HTS -16, FGF22 binding inactive, Beta apoptosis -13, AF4-AF9 inh -1.5, rRNA inh HTS OD600 -26 and rRNA inh HTS RFP -6.7.
For CCOc1cc(CN2CCN(Cc3ccc(C)o3)C(CCO)C2)ccc1OC (centres undefined) the results were Ecoli growth 0.69, T cruzi repl -12, UCH37 DUB inh 0.3, A1 inh 1.1, rRNA inh HTS 2, FGF22 binding inactive, Beta apoptosis -1, AF4-AF9 inh -4.6, rRNA inh HTS OD600 -6 and rRNA inh HTS RFP 1.4.
C[C@H](NC(=O)C1CC(=O)N(c2ccc(F)cc2)C1)C(=O)N1CCCCC1 (some centres undefined) was read as Ecoli growth 0.63, T cruzi repl 2, UCH37 DUB inh 2.5, A1 inh -0.1, rRNA inh HTS 8, FGF22 binding inactive, Beta apoptosis -8, AF4-AF9 inh 1.2, rRNA inh HTS OD600 13 and rRNA inh HTS RFP -2.3.
Screening Cc1cccc(C)c1NC(=O)Cn1cc(C=O)c2ccccc21 returned Ecoli growth 0.68, T cruzi repl -6, UCH37 DUB inh 1.8, A1 inh 0.2, rRNA inh HTS 18, FGF22 binding inactive, Beta apoptosis 7, AF4-AF9 inh -1.3, rRNA inh HTS OD600 4 and rRNA inh HTS RFP 3.5.

Next section, overlapping the part above by two compounds.
C[C@H](NC(=O)C1CC(=O)N(c2ccc(F)cc2)C1)C(=O)N1CCCCC1 (some centres undefined) was read as Ecoli growth 0.63, T cruzi repl 2, UCH37 DUB inh 2.5, A1 inh -0.1, rRNA inh HTS 8, FGF22 binding inactive, Beta apoptosis -8, AF4-AF9 inh 1.2, rRNA inh HTS OD600 13 and rRNA inh HTS RFP -2.3.
Screening Cc1cccc(C)c1NC(=O)Cn1cc(C=O)c2ccccc21 returned Ecoli growth 0.68, T cruzi repl -6, UCH37 DUB inh 1.8, A1 inh 0.2, rRNA inh HTS 18, FGF22 binding inactive, Beta apoptosis 7, AF4-AF9 inh -1.3, rRNA inh HTS OD600 4 and rRNA inh HTS RFP 3.5.
For NC(=O)c1cn(-c2ccccc2)nc1-c1cc2ccccc2oc1=O the results were Ecoli growth 0.65, T cruzi repl 0, UCH37 DUB inh -38, A1 inh -0.1 and Beta apoptosis -5.
`COc1cccc(COC(=O)c2ccc3c(c2)NC(=O)C(C)S3)c1OC` (centres undefined) gave Ecoli growth 0.62, T cruzi repl -19, UCH37 DUB inh 2.2, A1 inh 0.4, rRNA inh HTS 7, FGF22 binding inactive, Beta apoptosis 5, AF4-AF9 inh 8.3, rRNA inh HTS OD600 15 and rRNA inh HTS RFP -0.3.
O=C(NCC1COCCO1)c1cc(COc2c(F)cccc2F)on1 (centres undefined) was read as Ecoli growth 0.64, T cruzi repl 9, UCH37 DUB inh 2.6, A1 inh -0.2, rRNA inh HTS 2, FGF22 binding inactive, Beta apoptosis -1, AF4-AF9 inh -0.5, rRNA inh HTS OD600 2 and rRNA inh HTS RFP 1.9.
CCOc1ccc(CC(=O)NNC(=S)NC)cc1 was read as Ecoli growth 0.67, T cruzi repl 10, UCH37 DUB inh 3.5, A1 inh 0.4, rRNA inh HTS 15, FGF22 binding inactive, rRNA inh HTS OD600 8 and rRNA inh HTS RFP 0.1.
For C#CCOCCOCCOCCNc1nc(N2CCOCC2)nc(N2CCN(C(=O)[C@H](CCCCN)n3cc(CN)nn3)CC2)n1 the results were UCH37 DUB inh 3.8, A1 inh 0.1, rRNA inh HTS 16, FGF22 binding inactive, Beta apoptosis -2, AF4-AF9 inh 32*, rRNA inh HTS OD600 5 and rRNA inh HTS RFP -4.7.
`CCC(=O)Nc1ccc(Cl)c(NC(=S)NC(=O)COc2ccc(Cl)cc2)c1` gave Ecoli growth 0.71, T cruzi repl 2, UCH37 DUB inh 0.6, A1 inh 0.2 and Beta apoptosis -4.
Screening Cc1oc2ccc(OCC(N)=O)cc2c1C(=O)OC(C)C returned Ecoli growth 0.64, T cruzi repl 1, UCH37 DUB inh 1.2, A1 inh 1.1 and Beta apoptosis 11.
CCOC(=O)C[C@H]1c2ccccc2S(=O)(=O)N1Cc1cc(OC)c(OC)c(OC)c1 was read as T cruzi repl -7, UCH37 DUB inh 3.8, A1 inh -0.8 and Beta apoptosis -3.
For COc1ccc(NC(=O)Cn2cnc3c(cnn3-c3ccc(C)c(C)c3)c2=O)c(OC)c1 the results were Ecoli growth 0.73, T cruzi repl -8, UCH37 DUB inh -7.7, A1 inh 1.0 and Beta apoptosis 2.
`C=CCN(c1ccccc1)S(=O)(=O)c1cccc(C(=O)Nc2nnc(SCC)s2)c1` gave Ecoli growth 0.71, T cruzi repl -5, UCH37 DUB inh -38, A1 inh 1.1, rRNA inh HTS -1, FGF22 binding inactive, Beta apoptosis -2, AF4-AF9 inh 2.3, rRNA inh HTS OD600 -3 and rRNA inh HTS RFP -0.3.
O=C(NN=Cc1ccccc1O)C(O)c1ccccc1 (centres undefined) was read as Ecoli growth 0.67, UCH37 DUB inh -24, rRNA inh HTS -7, FGF22 binding inactive, AF4-AF9 inh -11, rRNA inh HTS OD600 -5 and rRNA inh HTS RFP 3.4.
For CC(=O)Nc1ccc(NC(=O)c2c(C)nn(-c3ccccc3)c2Cl)cc1C the results were Ecoli growth 0.69, T cruzi repl -5, UCH37 DUB inh 3.8, A1 inh 0.9, rRNA inh HTS -20, FGF22 binding inactive, Beta apoptosis 2, AF4-AF9 inh -0.4, rRNA inh HTS OD600 -12 and rRNA inh HTS RFP -1.7.
`COc1ccc(CCNC(=O)CSc2nc(C)nc3c2oc2ccccc23)cc1OC` gave Ecoli growth 0.73, T cruzi repl 7, UCH37 DUB inh 1.1, A1 inh -0.3 and Beta apoptosis 3.
